Sa growth 42C – inhibitors of Staphylococcus aureus growth at 42 °C; S. aureus RN4220 growth, OD600, 20 h; hits give low values; relative growth, % (concentration not given with the values); 170,000 tested, 0.53% active; AID 720641;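 active = growth at 42 °C up to 50% and 20 or more points under that at 30 °C, or under 10% at both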;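 note: 300 nL library stock went into each well; scaled to the means of positive and negative controls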
GIV Gai3 FP – GIV-Galpha-i interaction inhibition; percent of control (FP), % (test concentration not listed); Galpha-i3/FITC-GIV peptide fluorescence polarization, 90 min; hits give low values; scaled: aluminum fluoride 0%, vehicle 100%; AID 1224905; 210,000 tested, 0.42% active; P08753;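 active = replicate mean at 85% of control or lower, very high polarization wells dropped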;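 note: wells of about 15 µL received 100 nL stock; the first replicate is given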
Target sequence (P08753 whole entry, looked up): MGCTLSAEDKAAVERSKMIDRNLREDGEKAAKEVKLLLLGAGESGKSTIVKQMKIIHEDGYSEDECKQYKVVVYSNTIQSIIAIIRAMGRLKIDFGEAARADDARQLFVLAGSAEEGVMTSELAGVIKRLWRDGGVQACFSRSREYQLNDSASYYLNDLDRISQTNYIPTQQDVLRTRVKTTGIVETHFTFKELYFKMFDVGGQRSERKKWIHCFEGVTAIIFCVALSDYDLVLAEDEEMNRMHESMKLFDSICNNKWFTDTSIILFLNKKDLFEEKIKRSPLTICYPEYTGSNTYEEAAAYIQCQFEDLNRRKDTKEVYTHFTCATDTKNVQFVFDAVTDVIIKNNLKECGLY
HCMV NEC inh – disrupts HCMV UL50-UL53 complex binding. HTRF UL50-UL53 interaction, normalized percent inhibition. inhibition, % (no concentration beside the values). 190,000 tested, 0.15% active. AID 1918969;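 active = both replicates at 50% or more, plus weaker picks with an unusually low signal ratio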;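 note: stock transfer was 100 nL into about 20 µL; 0% = negative control wells and 100% = wells with untagged competitor protein; inactives centre near -12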
Sa growth 42C second temp – also measured in Sa growth 42C; calls as there; relative growth, %; measured here: growth at 30 °C;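 optical density after 20 h as mean of two plates; 100% = untreated growth and lower means inhibition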
Active calls of the source: *; · = not tested or not shown; & = joins results of further samples.

SMILES	Sa growth 42C	Sa growth 42C second temp	GIV Gai3 FP	HCMV NEC inh
CCc1nn2c(=O)cc(COc3cccc(NC(=O)C45CC6CC(CC(C6)C4)C5)c3)nc2s1	100	71	106	-16
c1ccc2c(c1)CCN2c1ncnc2c1nc1n2CCCCC1	104	88	101	-30
CCn1cc2nc(SCC(=O)Nc3ccccc3F)n(Cc3ccc(C)cc3)c(=O)c2n1	99	71	101	·
O=S(=O)(c1ccc(Cl)cc1)N1CCC(c2nc(-c3ccncc3)no2)CC1	·	·	102	6
O=C(Nc1cccc(Cl)c1)Nc1nc(-c2ccc(OC(F)(F)F)cc2)no1	110	83	101	·
Cc1cc(C)c2c(n1)sc1c(=O)oc(C)nc12	85	82	151	-27
CC1CN(CCCOc2ccc(C(C)(C)C)cc2)CC(C)O1 (stereo unspecified)	109	88	108	14
O=C(O)c1ccccc1C(=O)Nc1cccc(O)c1	105	89	·	-20
CCOC(=O)c1sc2ncnc(N3CCN(c4ccc(OC)cc4)CC3)c2c1C	·	·	109	-2
Cc1cccc(N(CC(=O)N2CCN(c3ccccc3)CC2)S(=O)(=O)c2ccccc2)c1C	·	·	103	2
C=CCN(CC=C)CC(O)Cn1c2c(c3ccccc31)CCN(C)C2=O (stereo unspecified)	111	100	102&96	6&-26
CCn1c(=O)c(=O)[nH]c2cc(C(=O)NCCCn3ccnc3)ccc21	75	90	·	-3
COc1ccc(N(C(=O)c2ccco2)C(C(=O)NC2CCCC2)c2cc(OC)c(OC)c(OC)c2)cc1 (stereo unspecified)	113	90	98	-28
O=C1c2ccc([N+](=O)[O-])cc2C(=O)N1c1ccc(-c2nc3ccccc3s2)cc1	·	·	106	-3
O=C(c1ccc(F)cc1)c1oc2ccccc2c1NC(=O)C1COc2ccccc2O1 (stereo unspecified)	97	91	103	-19
Nn1c(SCC(=O)Nc2cccc(Br)c2)nnc1C1CC1	91	95	·	-10
CCc1ccc(NC(=O)C(C)OC(=O)c2ccc(C#N)cc2)cc1 (stereo unspecified)	119	87	·	-33
CC(c1ccccc1)n1cnc2c1C(=O)c1ccccc1C2=O (stereo unspecified)	54	49	·	-106
COc1nc2ccccc2nc1C(=O)Nc1ccc(Br)c(C)c1	·	·	104	-52
Cc1ccc(-c2cc3ncc(C(=O)c4cc(C)ccc4O)cn3n2)cc1	·	·	97	-12
COc1cc(Cl)c(NC(=O)C(NS(=O)(=O)c2cccs2)C(C)C)c(OC)c1 (stereo unspecified)	80	89	99	·
CCCn1c(=O)oc2cc(NC(=O)Nc3ccc(C)cc3)ccc21	·	·	105	8
COc1ccc(C(CC(=O)Nc2ccc(F)c(Cl)c2)N2Cc3ccccc3C2=O)cc1OC (stereo unspecified)	123	81	97	·
O=C(CSc1nncn1-c1ccc(C(F)(F)F)cc1)c1ccc(F)cc1	89	70	92	-8

Part of the list above in order of length of the SMILES, falling.
SMILES	Sa growth 42C	Sa growth 42C second temp	GIV Gai3 FP	HCMV NEC inh
COc1ccc(N(C(=O)c2ccco2)C(C(=O)NC2CCCC2)c2cc(OC)c(OC)c(OC)c2)cc1 (stereo unspecified)	113	90	98	-28
O=C1c2ccc([N+](=O)[O-])cc2C(=O)N1c1ccc(-c2nc3ccccc3s2)cc1	·	·	106	-3
O=C(CSc1nncn1-c1ccc(C(F)(F)F)cc1)c1ccc(F)cc1	89	70	92	-8
CCc1ccc(NC(=O)C(C)OC(=O)c2ccc(C#N)cc2)cc1 (stereo unspecified)	119	87	·	-33
COc1nc2ccccc2nc1C(=O)Nc1ccc(Br)c(C)c1	·	·	104	-52
Nn1c(SCC(=O)Nc2cccc(Br)c2)nnc1C1CC1	91	95	·	-10

(cont.)
SMILES	Sa growth 42C	Sa growth 42C second temp	GIV Gai3 FP	HCMV NEC inh
Cc1ccccc1C(=O)Nc1ccc2c(c1)CC(=O)N2C	·	·	106	-15
COC(=O)c1ccc(CC(=O)c2c(C)cc(O)cc2O)o1	98	80	109	0
CC(C)(C)C(=O)Nc1ccc2c(c1)OCO2	113	101	·	10
COc1ccccc1NC(=O)CSC(=O)c1ccccc1	109	89	·	-3
O=C(NCC1OCCc2ccccc21)C1OCCc2ccccc21 (stereo unspecified)	106	88	104	-8
CC(C)NC(=O)CCSc1ccc(Cl)cc1	98	107	97	-14
CCc1ncc(C(O)c2ccc(OC)cc2)n1C (stereo unspecified)	121	87	·	-27
CC1=NN(c2ccccc2)C(=O)C1/C=C1\C(=O)NC(=O)N(c2ccc(Cl)cc2)C1=O (stereo unspecified)	·	·	110	-16
Cc1ccc(S(=O)(=O)NC(C)c2nc(Cn3c(C)nc4ccccc4c3=O)no2)cc1 (stereo unspecified)	·	·	107	-28
O=C(CCCCn1c(=O)c2ccccc2n(Cc2cccnc2)c1=O)NCc1ccc2c(c1)OCO2	98	86	102	-23
Cc1cc(C)n(-c2nnc(Nc3cc(Cl)ccc3C)c3ccccc23)n1	103	78	104	·
N#C/C(=C\c1ccccc1N1CCOCC1)S(=O)(=O)c1ccccc1	103	51	104	-4
O=C(NCc1ccccc1Cl)C(=O)NCC(c1ccco1)S(=O)(=O)c1cccs1 (stereo unspecified)	130	90	100	·
CC(C)OC(=O)C(C)Oc1ccc2c(=O)c(-c3ccccc3)coc2c1 (stereo unspecified)	96	88	96	·
CCSc1nnc(NC(=O)/C=C/c2ccco2)s1	66	94	·	-30
CC(C)n1cc(-c2noc(-c3ccccc3Cl)n2)c(=O)n(Cc2ccccc2)c1=O	92	85	104	-45
Cc1nnc2c3ccccc3nc(Nc3cccc(C(F)(F)F)c3)n12	97	88	104	-1
CCc1ccc(OCc2ccc(C(=O)OC)o2)cc1	87	85	103	·
Cc1ccc(-c2nnn(CC(=O)N3CC(=O)Nc4ccccc43)n2)cc1	89	57	·	-19
COc1ccc(CN(C)C(=O)C2CC(=O)N(C3CCCC3)C2)cc1F (stereo unspecified)	107	97	·	14
CCOC(=O)c1c(NC(=O)CN2C(=O)C3CC=C(Cl)CC3C2=O)sc2c1CCCCC2 (stereo unspecified)	·	·	101	-3
CCOC(=O)c1ccc(NC(=O)C2CCN(C(=O)N3CC(C)Oc4ccc(C)cc43)CC2)cc1 (stereo unspecified)	108	79	103	-7
COc1ccc2nc(NC(=O)c3nc(SCc4cccc(C)c4)ncc3Cl)sc2c1	107	90	105	-9
Cc1ccc(-c2noc(-c3nn(-c4ccccc4)c(=O)c4ccccc34)n2)cc1	·	·	109	-16
CC(C)NC(=O)NCc1c(F)cccc1Cl	89	90	97	-26
Cn1c(=O)c2c3c(cnc2n(C)c1=O)C(=O)CC(C)(C)C3	·	·	109	-21
Cc1nnsc1-c1noc(C)c1-c1nc(-c2cc(C(F)(F)F)cc(C(F)(F)F)c2)no1	98	95	102	0
COC(=O)CNc1ccc(C)c(C)c1	133	90	106	-25
COc1ccc(NC=O)c2ncccc12	114	65	99	-37
CCN(C(=O)c1sc2nc3n(c(=O)c2c1C)CCCCC3)c1ccc(OC)cc1	94	92	97	-16
COC(=O)c1sc(SC)c(C#N)c1-c1cccc(Cl)c1	92	83	101	-44
CC(C)(C)c1cc(C(=O)Oc2cncc(Cl)c2)cc(C(=O)Oc2cncc(Cl)c2)c1	101	91	100	-1
O=S(=O)(Nc1cccc(-c2ccc(N3CCOCC3)nn2)c1)c1ccccc1C(F)(F)F	118	81	105	·
Cc1cccc(-c2nc(CS(=O)CC(=O)NC(C)C)c(C)o2)c1 (stereo unspecified)	111	86	98	-1
CC(C)C(=O)Nc1ccc(SCc2cc(=O)n3c(ncn3C(C)C)n2)cc1	·	·	100	-35
O=C(NCc1ccc2c(c1)OCO2)C1CCN(C(=O)c2ccc(-c3noc(C4CC4)n3)cc2)CC1	·	·	102	-7

Looked up by compound from the list above:
SMILES	Sa growth 42C	Sa growth 42C second temp	GIV Gai3 FP	HCMV NEC inh
O=C(Nc1cccc(Cl)c1)Nc1nc(-c2ccc(OC(F)(F)F)cc2)no1	110	83	101	·
C=CCN(CC=C)CC(O)Cn1c2c(c3ccccc31)CCN(C)C2=O (stereo unspecified)	111	100	102&96	6&-26
CC(C)NC(=O)CCSc1ccc(Cl)cc1	98	107	97	-14
COc1ccc2nc(NC(=O)c3nc(SCc4cccc(C)c4)ncc3Cl)sc2c1	107	90	105	-9
CCCn1c(=O)oc2cc(NC(=O)Nc3ccc(C)cc3)ccc21	·	·	105	8

(continued)
SMILES	Sa growth 42C	Sa growth 42C second temp	GIV Gai3 FP	HCMV NEC inh
O=C(CN1C(=O)c2ccccc2C1=O)Nc1ncn(Cc2ccc(Cl)cc2)n1	·	·	98	-15
O=C(CN1CCSc2ccccc21)NC1CCCC1	·	·	98	-27
CN(CC(=O)Nc1cccc2ccccc12)Cc1nc2ccccc2c(=O)[nH]1	99	74	·	-52
Cc1ccc(C2C(NC(=O)c3ccc(F)cc3)C([O-])=N/[N+]2=C\c2ccc(N(C)C)cc2)cc1 (stereo unspecified)	89	83	97	·
CCOC(=O)COc1c(Cl)cc(/C=C2/N=C(c3ccco3)OC2=O)cc1OCC	90	85	98	-17
N#CCCN1CCN(Cc2cc(-c3ccccc3)ccc2O)CC1	119	85	·	-10
COC(=O)Cn1c(C)cc(=O)n2nc(-c3ccc(Cl)cc3)nc12	·	·	102	-10
Cn1c(N2C(=O)c3cccc4cccc(c34)C2=O)nc2ccccc21	101	96	102	-8
CCOC(=O)Cc1ccc(NC(=O)N2CCC(CN3CCCCCC3)CC2)cc1	110	101	106	·
CCOC(=O)c1c(NC(C)=O)nc(SC)n1Cc1ccco1	112	91	105	-52
COc1ccc(CC(=O)Nc2ccc3c(c2)OCO3)cc1S(=O)(=O)N1CCOCC1	88	95	·	-6
c1ccc(Cn2ccc3ccccc32)cc1	117	100	101	·
Cc1nc(N2CCN(c3ccccn3)CC2)c2c(C)c(C(=O)N3CCN(c4ccc(F)cc4)CC3)sc2n1	·	·	107	-8
CCCCC1CC1C(=O)Nc1ccccc1C#N (stereo unspecified)	82	91	105	-2
CNc1ccccc1C(C)(C)c1cc(-c2cccnc2)n[nH]1	99	81	·	-16
CCOc1ccc(S(=O)(=O)n2cccn2)cc1	95	88	96	·
CC(C)N(C(=O)NC(=O)c1csnn1)C(C)C	93	89	108	·
S=C=NC12CC3CC(CC(C3)C1)C2	107	87	·	-20
COc1cccc(CN2CCN(Cc3ccc(OC)cc3OC)CC2)c1	·	·	104	2
Cc1ccccc1-c1ccnc2[nH]n(-c3ccccc3)c(=O)c12	82	88	100	-30
CC1(C(=O)NC2CCCCC2)COc2nc(-c3ccccc3)sc2C(=O)N1Cc1ccccc1 (stereo unspecified)	·	·	99	7
O=C(c1cccnc1)N1CCN(C/C=C/c2ccccc2)CC1	93	97	·	2
CC1(C)Cc2c(sc3ncn4nc(CSc5nc6ccccc6o5)nc4c23)C(C)(C)N1	87	86	100	-30
O=C(CCCc1c[nH]c2ccccc12)NC1=NCCS1	100	93	106	·
Clc1ccc(-c2cc(-n3cnc4ccccc43)n[nH]2)cc1	71	87	·	-16
COCCn1c(C)cc(/C=C(\C#N)C(=O)OCCN2C(=O)c3ccccc3C2=O)c1C	90	95	·	-25
CCc1nnsc1C(=O)Nc1cc(OC)ccc1OC	83	89	106	-40
COCC(C)n1c(C)cc(C2=NNC(=Nc3ccc(F)cc3F)SC2)c1C (stereo unspecified)	91	85	·	-19
COc1ccc(-c2cn3c(C)c(C(=O)Nc4ccc5c(c4)OCCO5)sc3n2)cc1	87	91	105	2
CCc1ccc(C(=O)N(Cc2ccccc2)C(C)C)cc1	87	89	107	-16
CCOC(=O)c1c(NC(=O)C2COc3ccccc3O2)sc(C)c1C (stereo unspecified)	·	·	99	-18
CC(OC(=O)c1c(Cl)cccc1Cl)C(=O)NC1CC1 (stereo unspecified)	95	92	·	4
O=C(Nc1ccc2oc(-c3ccc(Cl)cc3)nc2c1)c1ccc2ccccc2c1	90	89	102	-17
CCOC(=O)c1c(C)n(-c2ccc(C)cc2)c2ccc(OCC(O)CN3CCCCC3)cc12 (stereo unspecified)	·	·	102	-7
CC(=O)NCc1ccc(C(=O)CSc2nnc(-c3ccncc3)n2Cc2ccccc2)o1	62	89	·	-31
COc1ccc(-c2nc(N)n(C(C)=O)n2)cc1	90	81	101	5
CCCCn1c(=O)c2sccc2n2c(SCc3cccc(C)c3)nnc12	·	·	102	-12
CCOC(=O)Cn1c(=O)oc2cc(S(=O)(=O)N(CC(C)C)CC(C)C)ccc21	110	92	110	-18
O=C(O)C1CCCCC1C(=O)Nc1ccc2[nH]c(=S)sc2c1 (stereo unspecified)	71	84	·	3
COc1ccc(-n2c(SCC(=O)NCC3CCCO3)nc3c([nH]c4ccccc43)c2=O)cc1 (stereo unspecified)	104	92	103	0
Cn1c(=O)oc2cc(S(=O)(=O)NCCCN3CCN(c4ccccc4F)CC3)ccc21	·	·	98	1
CCOC(=O)C1=C(N)OC2=C(C(=O)CC(c3ccccc3)C2)C1c1ccc(O)c(OC)c1 (stereo unspecified)	·	·	107	3
CN(C(=O)CSc1nc2ccccc2[nH]1)c1ccccc1	107	96	107	-31
Cc1ccc(C)c(NC(=O)Cc2nc(CN3CCOCC3)cs2)c1	85	86	·	-26
COC(=O)c1cc2ccccc2[nH]1	106	89	·	-7
O=P(O)(Cc1ccccc1)c1ccccc1	113	101	101	-5
CCOc1ccc(C(=O)NCCn2cc(SCC(=O)NCCc3ccc(OC)c(OC)c3)c3ccccc32)cc1	81	90	105	-6
Cc1ccccc1-c1nnc(SCC(=O)c2ccccc2)o1	81	66	101	-26

Compound activity from PubChem BioAssay.

Compounds as they come (roughly 0.8% active in at least one column).
